Source: PubChem
Choline anaer gr: growth inhibitors of anaerobic choline-fed gram-negatives, minimal medium, absorbance; Gram-negative bacterium anaerobic choline minimal medium; stronger effect = lower value; many inactives read as strong as hits in the columns shown; 55,000 compounds, 0.2% hits; calls only; AID 1963822, 2024;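 active means growth z-score on choline under -2 at 7 or 20 h with little or no fall on glycerol, limits in tiers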;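 further: stock transfer was 300 nL into about 50 µL; the organism is E. coli; final concentration not given here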
Choline anaer gr early: also measured in Choline anaer gr; calls as there; z-score; measured here: choline growth z-score, timepoint 1;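 score of optical density at 7 h as mean of two plates; lower means less growth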
* marks the source's active call; other numbers are inactive results; i = inactive; & = joins results of further samples.

Sequence of screens: Choline anaer gr early	Choline anaer gr
COc1ccc(NC(=O)c2cn(-c3ccc(-c4noc(C)n4)cc3)nc2C)cc1
 : -0.89	i
Cc1nn(C)cc1CN(C)c1nc(C2CC2)nc2c1CCC2
 : -0.12	i
Nc1ccn([C@@H]2O[C@H](CO)[C@@H](O)C2(F)F)c(=O)n1
 : -2.1&0.14	i
CCOC(=O)C1CCN(c2ncc(C(=O)OC)c3ccccc23)CC1
 : -0.45	i
Cc1ccc(S(=O)(=O)N2CCOc3ccc(COCc4ccc(F)cc4)cc3C2)c(C)c1
 : 1.4	i
O=C1COc2ccc(S(=O)(=O)N3CCc4ccccc43)cc2N1Cc1noc(C2CC2)n1
 : -1.9	i
CC(C)Cn1c(=O)c2sccc2n2c(=O)n(CC(=O)NC(C)C)nc12
 : 0.74	i
O=c1cc(CNc2ccccc2)nc2nc(NCc3ccccc3)[nH]n12
 : 0.27	i
Cc1nn(CC(=O)NC(C)(C)C)c(C)c1S(=O)(=O)N1CCCC(C(=O)N2CCN(C)CC2)C1 (stereo unspecified)
 : -0.02	i
CC1=C(C(=O)O)N2C(=O)[C@@H](NC(=O)C(N)c3ccccc3)[C@H]2SC1 (stereo partly specified)
 : 0.39	i
CN(CC(=O)N1CCN(c2ccccn2)CC1)c1nnc(N2CCCCC2=O)s1
 : 0.18	i
Cc1ccc(-c2cc3ncc(C(=O)c4cc(Br)ccc4O)cn3n2)cc1
 : 2.2	i
Cc1ccc(-n2c(N)c(C(=O)NCC3CCCO3)sc2=S)cc1 (stereo unspecified)
 : -0.43	i
CCc1ccc(Nc2nnc(C)c(=O)[nH]2)cc1
 : -0.52	i
O=c1[nH]ccn(-c2ccc(F)c(F)c2)c1=O
 : 0.56	i
Cc1ccc(Cc2nnc(-c3ccc(NC(=O)Nc4ccc(C)c(C)c4)cc3)o2)cc1
 : -0.04	i
C=CCn1c(=O)c(N2CCC(NC(=O)NC3CCCC3)CC2)nc2cccnc21
 : 0.04	i
Cc1nn(-c2ccc(F)cc2)c2sc(C(=O)Nc3ccc(F)cc3)cc12
 : -0.47	i
CCC(C)NC(=O)CN(C)S(=O)(=O)c1cc2c(cc1Cl)NC(=O)CO2 (stereo unspecified)
 : -0.94	i
CCOc1ccc(-c2nc(CSc3nc4ccccc4c(=O)n3C)c(C)o2)cc1OC
 : -0.67	i
COC(=O)C1=C(c2ccccc2)c2ccccc2S(=O)(=O)N1CC(=O)Nc1ccccc1
 : -0.41	i
Cc1cc(C)c(S(=O)(=O)Nc2ccc3nc(N4CCN(C)CC4)cc(C(=O)O)c3c2)cc1C
 : -0.63	i
Cc1ccc(C)c(Sc2cc(N3CCC(C(=O)NCCCOC(C)C)CC3)ncn2)c1
 : 0.24	i
CC(=O)N1CCc2c(sc3nc(SCc4ccccc4F)n(-c4ccccc4)c(=O)c23)C1
 : -0.21	i
Cc1ccc(OCc2cc(=O)n3oc(C)cc3n2)c(NC(=O)COc2ccc(C(C)(C)C)cc2)c1
 : -0.45	i
Cc1nn2c(S(=O)(=O)NCc3cccs3)c(C)nc2s1
 : -0.31	i
O=C(CCc1nc(CSc2nc3ccc(Cl)cc3[nH]2)no1)Nc1cc(F)cc(F)c1
 : 0.53	i
COc1cccc(-c2ccc(SCc3nc(-c4ccc5c(c4)OCO5)no3)nn2)c1
 : 1.8	i
COC(=O)CNC(=O)C(=O)OC
 : 0.59	i
Cc1ccc(-c2csc3ncnc(N4CCC(C(N)=O)CC4)c23)cc1
 : -0.5	i
Oc1cc2c(c(Cl)c1O)CCNCC2c1ccccc1 (stereo unspecified)
 : 0.06&0.49	i
COc1cccc(C2CC(=O)Nc3c2c(C)nn3-c2nncc(-c3ccc(C)cc3)n2)c1OC (stereo unspecified)
 : 0.41	i
COc1cc(OC)cc(-c2noc(-c3nn(-c4ccc(Cl)cc4)ccc3=O)n2)c1
 : -0.03	i
CC1=C(C(=O)NCCCN(CC(C)C)CC(C)C)C2(CCN(S(C)(=O)=O)CC2)OC1=O
 : -1.5	i
Cc1cccc(-c2cc(Nc3ccc(C(=O)NCCC(C)C)cc3)ncn2)c1
 : 0.4	i
Cc1ccc2oc(=O)c3cnn(CC(=O)N4CCC(N5CCCCC5)CC4)c3c2c1
 : -1.6	i
Cc1csc(-c2cc(S(=O)(=O)NC3CCCCC3)cn2CC(=O)N2CCCCC2)n1
 : -0.54	i
O=C(NC1CCCC1)c1nnc(-c2ccc(S(=O)(=O)N3CCOCC3)cc2)o1
 : -0.24	i
Cc1nn2c(NCc3cccnc3)cc(C(C)(C)C)nc2c1-c1ccc(F)cc1
 : 0.39	i
Cc1cc(S(=O)(=O)N2CCC(c3noc(-c4ccc(F)cc4)n3)CC2)ccc1F
 : 1.3	i
Cc1ccc(-c2ccc(-n3nc(C)c(S(=O)(=O)NCCN4CCOCC4)c3C)nn2)cc1C
 : 0.02	i
Cc1ccc(CNC(=O)N2CCC(N3CCN(Cc4ccc(F)cc4)C(=O)C3=O)CC2)cc1
 : -0.34	i
O=C(c1ccc2c(c1)OCCO2)N(Cc1cccnc1)c1nc2c(F)cccc2s1
 : 1.3	i
O=C(NC1CCCCC1)N1CCc2cc3ccccc3nc21
 : 1.4	i
CCc1nnc2sc(-c3c[nH]c4ccccc34)nn12
 : -0.35	i
CC1CCCCN1S(=O)(=O)c1ccc2c(c1)C(=O)Nc1cc(Cl)ccc1O2 (stereo unspecified)
 : -0.1	i
O=C(C1CCN(c2ncnc3c2sc2cccc(F)c23)CC1)N1CCN(Cc2ccccc2)CC1
 : 0.65	i
Cn1c(=O)c2sccc2n2c(SCc3cccc(Br)c3)nnc12
 : -0.35	i
CC1CCN(S(=O)(=O)c2cc(C(=O)N3CCN(c4ccccc4F)CC3)n(C)c2)CC1
 : 1.1	i
Cc1nn(-c2ccc3nnc(C)n3n2)c2c1C(c1ccc(F)c(Br)c1)CC(=O)N2 (stereo unspecified)
 : -0.04	i
CCOc1ccc(C2=NC(c3ccc(OC)cc3)=Nc3ccc(C)cc3N2)cc1
 : 1.1	i
Cc1cccc(NC(=O)C2CCN(S(=O)(=O)c3c(C)[nH]c(C)c3C(=O)N3CCCCC3)CC2)n1
 : -0.61	i
Cc1noc2c1C(c1ccccc1)C1=C(CC(c3ccccc3)CC1=O)N2 (stereo unspecified)
 : 0.32	i
O=C(Cn1nc2c3sc(N4CCCCC4)nc3ncn2c1=O)Nc1ccc(F)c(Cl)c1
 : -0.91	i
CO[C@H](C(=O)[C@@H](O)[C@@H](C)O)[C@@H]1Cc2cc3cc(O[C@H]4C[C@@H](O[C@H]5C[C@@H](O)[C@H](O)[C@@H](C)O5)[C@@H](O)[C@@H](C)O4)c(C)c(O)c3c(O)c2C(=O)[C@H]1O[C@H]1C[C@@H](O[C@H]2C[C@@H](O[C@H]3C[C@](C)(O)[C@H](O)[C@@H](C)O3)[C@H](O)[C@@H](C)O2)[C@H](O)[C@@H](C)O1
 : 0.59	i
CNC(=O)c1cc2n(n1)CC(C)(C(=O)NC1CCCCC1)N(C)C2=O (stereo unspecified)
 : 0.57	i
O=C(NCCc1nc2cccnc2n1C1CCCCC1)Nc1ccccc1Cl
 : 1.1	i
CCc1ccc(-n2c(=O)c3cccnc3n2CC(=O)NC2CCCC2)cc1
 : -0.78	i
C=CCNC(=O)c1cccn2c(-c3ccc(F)cc3)nnc12
 : -1.2	i
Cc1cc(C)c(S(=O)(=O)N2CCCCC2C(=O)N2CCN(c3ccccc3F)CC2)c(C)c1 (stereo unspecified)
 : 0.39	i

Next results:
Sequence of screens: Choline anaer gr early	Choline anaer gr
CC(C)N1Cc2cc(S(C)(=O)=O)ccc2N(CCN2CC=C(c3c[nH]c4cc(F)ccc34)CC2)S1(=O)=O
 : 0.26	i
CCNC(=O)NC1CCN(C(=O)C2CCCC2)C1 (stereo unspecified)
 : 0.48	i
CCOC(=O)c1[nH]c(C)c(CN(C(=O)c2cccnc2)C2CCCCC2)c1C
 : 0.12	i
Cc1cc(C)c2c(=O)n(Cc3cn4ccccc4n3)c(=O)n(-c3ccccc3)c2n1
 : 0.33	i
Cc1ccc(NC(=O)COc2cccc(-c3nc(-c4ccccc4)no3)c2)cc1
 : 0.5	i
COc1ccc(Cl)cc1NC(=O)c1cnn(-c2ccc(Br)cc2)c1
 : -0.27	i
Cc1cc(C)c(S(=O)(=O)N2CCCC2c2nc(-c3ccc(F)cc3)no2)cc1C (stereo unspecified)
 : 1.7	i
COc1ccc(Cl)cc1NC(=O)N1CCc2nc[nH]c2C1
 : -1.2	i
Cc1sc(-c2ccno2)cc1S(=O)(=O)N1CCN(C)CC1
 : -0.86	i
O=C(O)c1cc2cc(Cc3cccnc3)ccc2o1
 : 1.1	i
O=C(CN1C(=O)COc2ccc(C(=O)N3CCCC3)cc21)NCc1ccccc1Cl
 : -0.85	i
O=C(CSc1nc2c(c(=O)[nH]1)CCC2)Nc1nc(-c2ccccc2)cs1
 : -0.89	i
CCS(=O)(=O)N1CCN(C(=O)c2nsc3ccccc23)CC1
 : 0.45	i
O=C1Nc2ccccc2Oc2cc(Cl)c(S(=O)(=O)N3CCSCC3)cc21
 : -0.96	i
CCOC(=O)CSc1nc2c(-c3ccccc3)c[nH]c2c(=O)[nH]1
 : -0.27	i
Brc1c(Br)c(Br)c2n[nH]nc2c1Br
 : -1.2&-0.53	i
CCOC(=O)c1c(C)[nH]c(C(=O)N2CCC(CC(=O)NCc3ccc(C)cc3)CC2)c1C
 : -1.7	i
O=C(c1ccc2noc(-c3ccc(Cl)cc3)c2c1)N1CCN(c2ccc(F)cc2)CC1
 : -1.2	i
Cc1cccc(Nc2cc(C)ncn2)c1
 : -0.72	i
Cc1ccc(-c2noc(C3CCN(C(=O)C4CC(=O)N(C5CCCC5)C4)CC3)n2)cc1 (stereo unspecified)
 : -0.52	i
Nc1cc(OC(=O)c2ccccc2)nn1S(=O)(=O)c1ccc(F)cc1
 : 1.3	i
CCc1nc(CN2C(=O)COc3ccc(S(=O)(=O)NC4CC4)cc32)no1
 : 0.54	i
Cc1cc(C2CCCN2C(=O)c2c(C)noc2C)on1 (stereo unspecified)
 : -0.75	i
O=S(=O)(c1cc(F)ccc1F)N1CC(OCc2cccc(F)c2)C1
 : 0.05	i
O=C(Cc1ccc(F)cc1)N1CCCN(C(=O)Nc2ccc(S(=O)(=O)N3CCOCC3)s2)CC1
 : 0.68	i
CC1CCN(c2ccc(NC(=O)c3c4c(nc5ccccc35)C(=O)N(C3CCCCC3)C4)cc2)CC1
 : -1.1	i
CC(=O)N1CCSc2ccc(S(=O)(=O)NCCc3ccc(Cl)cc3)cc21
 : 0.62	i
O=C(NCC1CCCO1)c1cn(-c2cc(N3CCSCC3)ncn2)cn1 (stereo unspecified)
 : -2.1	i
O=C(NCc1ccccn1)C1CCN(c2ncnc3c2oc2ccccc23)CC1
 : -0.2	i
Cc1ccc(NC(=O)N2CC3CCCN3c3ccccc32)cc1C (stereo unspecified)
 : 1.1	i

Single records, from the list above. Screens in order: Choline anaer gr early, Choline anaer gr
COc1ccc(Cl)cc1NC(=O)c1cnn(-c2ccc(Br)cc2)c1 as listed: -0.27, i
Cc1ccc(NC(=O)N2CC3CCCN3c3ccccc32)cc1C (stereo unspecified) as listed: 1.1, i
CC1CCN(c2ccc(NC(=O)c3c4c(nc5ccccc35)C(=O)N(C3CCCCC3)C4)cc2)CC1 as listed: -1.1, i

Further records follow:
Sequence of screens: Choline anaer gr early	Choline anaer gr
CC1CCCN(CC2CCN(S(=O)(=O)CCc3ccccc3)CC2)C1 (stereo unspecified)
 : -3	i
CCOC(=O)c1c(NC(=O)c2nn(-c3ccc(OCC)cc3)ccc2=O)sc2c1CCC2
 : -0.88	i
CCc1nc(-c2cc(S(=O)(=O)N3CCOCC3)c(C)s2)no1
 : -0.88	i
Cc1nn(-c2nc3ccc(Br)cc3s2)c2c1C(c1ccccc1Cl)CC(=O)N2 (stereo unspecified)
 : 0.03	i
Cc1ccccc1C1CC(=O)Nc2c1cnn2-c1nc2ccccc2s1 (stereo unspecified)
 : -0.72	i
COC(=O)c1sccc1NC(=O)CN1CCCN(Cc2ccccc2C)S1(=O)=O
 : 0.16	i
CCOc1cc(CNCCSc2nnnn2C)ccc1OCc1ccc(Cl)cc1
 : 1.2	i
CC1(C(=O)NC2CCCCC2)COc2nc(-c3ccccc3)sc2C(=O)N1CCc1ccccc1 (stereo unspecified)
 : 1.3	i
Cc1ccc(C)c(N2CCN(S(=O)(=O)c3c(C)sc(C)c3-c3cc(C)[nH]n3)CC2)c1
 : -0.32	i
COc1ccc2[nH]cc(CCNC(=O)c3c(-c4cccnc4)noc3C)c2c1
 : -0.44	i
O=S(=O)(c1cc(-c2nnc(C3CC3)o2)cs1)N1CCCCC1
 : 0.17	i
Cc1ccc(S(=O)(=O)NC(=O)Nc2ccc(Cl)cc2)cc1
 : 0.75	i
Cc1ccc2c(=O)c(-c3nc(-c4cccc(F)c4)no3)cn(CC(=O)Nc3c(F)cccc3F)c2n1
 : -2.2	i
COc1ccccc1CNC(=O)CCc1c(OC)nc2c(c(C)nn2-c2cccc(F)c2)c1C
 : 0.24	i
N[C@H](C(=O)O)c1ccc(C(=O)O)c(O)c1
 : 0.57	i
COc1ccc(NC(=O)c2cccc(C)c2)cc1CN1CCn2c(nc3ccccc32)C1
 : 1.8	i
CN1CCc2c(c3ccccc3n2Cc2ccccc2)C1
 : -0.77	i
CCOC(=O)c1c(C)[nH]c(C)c1S(=O)(=O)N1CCC(C(=O)N2CCN(c3ccccn3)CC2)CC1
 : -1.2	i
COc1cccc(-c2nn(C)c3sc(C(=O)NCC4CCN(Cc5cccc(C)c5)CC4)cc23)c1
 : -1.1	i

Nothing new here: an excerpt of the list.
Sequence of screens: Choline anaer gr early	Choline anaer gr
CN1CCc2c(c3ccccc3n2Cc2ccccc2)C1
 : -0.77	i
CCOC(=O)c1c(C)[nH]c(C)c1S(=O)(=O)N1CCC(C(=O)N2CCN(c3ccccn3)CC2)CC1
 : -1.2	i

Not all compounds are listed; the hit share may differ from the screen's.
